# HNF4A DNA FP: change in binding of human HNF4A to DNA, primary screen, biochemical, fluorescence polarization, FITC-DNA; Hepatocyte nuclear factor 4-alpha (Homo sapiens), P41235; 1 h; activity change, % at 10 µM; 360,000 compounds, 0.3% hits; AID 1224865, 2016; in the data active = activity change above about 30%, passing the limit was not always enough;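 also: controls were the assay level and a saturating level of protein; the project sought stronger binding though the title names inhibitors; some compounds called inactive have numbers as strong as hits; positive values seem to mean higher polarization but the record does not say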
# RanGTP-Impb inh: inhibitors of RanGTP-importin-beta interaction, primary screen, biochemical, FRET, CFP-Ran, YFP-importin-beta, homogeneous. Ran GTPase (GTP-bound) - importin-beta complex. cell-free CFP-Ran/YFP-importin-beta FRET ratio. inhibition, % (test concentration not listed). 300,000 compounds, 1.1% hits. AID 2216, 2009;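 active = most replicates above 15%; inconclusive = exactly half above 15%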;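 also: 0% = DMSO wells and 100% = Ran loaded with GDP instead of GTP; wells of about 40 µL received 100 nL stock; the first replicate is given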
# MLL AF4-AF9 inh: inhibitors of AF4 peptide binding to AF9, primary screen, biochemical, AlphaScreen, biotin-AF4 peptide, FLAG-AF9, single point | inhibition, % at 10 µM | 350,000 compounds, 0.47% hits;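 active = every replicate reaching a set inhibition limit, whatever the replicate mean, cut at about 25% in these data; inconclusive = mean inhibition reaches that limit but some replicates miss it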;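 also: 0% = plate neutral control median and 100% = total signal loss; the record names both 10 and 1 µM as test concentration; the first replicate is given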
# Target sequence (P42568 whole entry, looked up): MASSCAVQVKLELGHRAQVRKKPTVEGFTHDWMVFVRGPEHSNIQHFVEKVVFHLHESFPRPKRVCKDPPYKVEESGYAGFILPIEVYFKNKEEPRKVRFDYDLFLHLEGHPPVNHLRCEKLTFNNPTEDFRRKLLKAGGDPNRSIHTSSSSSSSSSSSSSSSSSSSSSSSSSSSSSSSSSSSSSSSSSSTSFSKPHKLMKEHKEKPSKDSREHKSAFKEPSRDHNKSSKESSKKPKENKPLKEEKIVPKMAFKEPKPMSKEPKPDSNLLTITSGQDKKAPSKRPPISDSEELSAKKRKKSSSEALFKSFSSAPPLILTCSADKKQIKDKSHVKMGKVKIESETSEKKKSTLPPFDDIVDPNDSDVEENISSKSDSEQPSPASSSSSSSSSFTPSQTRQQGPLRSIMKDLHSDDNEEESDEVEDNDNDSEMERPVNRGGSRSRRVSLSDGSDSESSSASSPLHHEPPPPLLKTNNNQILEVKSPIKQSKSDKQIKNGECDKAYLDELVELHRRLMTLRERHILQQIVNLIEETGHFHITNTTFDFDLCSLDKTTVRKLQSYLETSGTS
# Ecoli growth: E. coli growth inhibition, primary screen, OD600. 330,000 compounds, 0.21% hits. OD600 absorbance (no concentration beside the values). Escherichia coli growth, 23 h; stronger effect = lower value;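 active = OD600 absorbance below the run mean of sample wells minus 3.6 SD, in any replicate, cut at about 0.56 in these data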;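 also: stock transfer was 300 nL into about 60 µL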
# FGF22 binding: binders of human FGF22 protein, primary screen, FGF22 synaptogenesis inhibitor project, biophysical, thermal shift, single point; Fibroblast growth factor 22 (Homo sapiens), Q9HCT0; recombinant FGF22 thermal shift, SYPRO orange fluorescence; percent of sucrose octasulfate shift, DMSO zero; calls only at 9.99 µM; 340,000 compounds, 1.5% hits; AID 651658, 2012;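 active = melting point raised past a set limit in the mean and every replicate; inconclusive = no clear call; three in four hits are not shown here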
# Target sequence (Q9HCT0 whole entry, looked up): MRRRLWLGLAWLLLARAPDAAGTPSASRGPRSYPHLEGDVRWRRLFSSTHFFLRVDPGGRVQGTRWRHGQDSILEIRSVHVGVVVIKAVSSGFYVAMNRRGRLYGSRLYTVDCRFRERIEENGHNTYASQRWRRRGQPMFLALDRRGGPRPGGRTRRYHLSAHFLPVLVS
# UCH37 DUB inh: inhibitors of human UCH37 deubiquitinase, primary screen, biochemical, Ub-AMC cleavage, fluorescence | purified proteasome/UCH37 | 330,000 compounds, 0.33% hits | inhibition, % (no concentration beside the values);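 active = mean of two replicates above 20%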;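 also: 0% = compound-free wells with enzyme and 100% = wells lacking proteasome; stock transfer was 100 nL into about 20 µL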
# Target sequence (Q9Y5K5 whole entry, looked up): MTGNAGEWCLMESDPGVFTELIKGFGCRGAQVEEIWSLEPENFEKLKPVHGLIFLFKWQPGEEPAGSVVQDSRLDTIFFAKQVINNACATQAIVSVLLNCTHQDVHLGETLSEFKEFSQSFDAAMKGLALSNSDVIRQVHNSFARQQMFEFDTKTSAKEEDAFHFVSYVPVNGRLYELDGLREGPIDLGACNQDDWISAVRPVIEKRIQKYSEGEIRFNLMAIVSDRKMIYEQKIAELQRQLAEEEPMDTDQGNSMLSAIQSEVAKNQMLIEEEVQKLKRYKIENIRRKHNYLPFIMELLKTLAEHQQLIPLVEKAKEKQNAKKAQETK
#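 system = Proteasome-associated human UCH37 deubiquitinase | amount = 0.15 nM proteasome as dispensed | medium = pH 7.4 Tris-HCl (50 mM) with ovalbumin, ATP-MgCl2, DTT | incubation = 30 min preincubation with enzyme, 25 min cleavage at room temperature | detection = AMC fluorescence 355/460 nm | read-out basis = percent inhibition | controls = no-proteasome and no-compound wells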
# Vif A3G: inhibitors of Vif binding to APOBEC3G peptide, primary screen, biochemical, TR-FRET, GST-Vif 1-94, biotin-A3G peptide, dose response retest (AID 1117319). TR-FRET GST-Vif / biotin-A3G peptide binding; higher % means a stronger effect; test concentration not given here; strong numbers were not always called active. inhibition, %; hits with a dose series show IC50 in µM. 260,000 compounds, 0.57% hits;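 active = above the screen mean plus three standard deviations and confirmed in dose response; inconclusive = results disagree or hit not tested in dose response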;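 also: Vif residues 1-94 fused to GST binding biotinylated APOBEC3G peptide 110-148; 0% = full assay without inhibitor and 100% = GST in place of GST-Vif; retest series ran down from 100 µM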
# Active calls of the source: *; i = inactive; ? = inconclusive; nt = no result given; & = joins results of further samples.
SMILES,HNF4A DNA FP,RanGTP-Impb inh,MLL AF4-AF9 inh,Ecoli growth,FGF22 binding,UCH37 DUB inh,Vif A3G
COc1ccc(S(=O)(=O)N2CCC(Nc3ccccc3Cl)CC2)cc1,-0.6,0.9,-1.4,0.73,i,3.7,-3%
COc1ccc(NC(=O)c2nc3nccc(C)n3n2)cc1S(=O)(=O)N1CCOCC1,-2.1,nt,-0.6,0.73,i,3.0,14%
Cc1ccc(COCCN2CCN(S(=O)(=O)c3ccc(C)cc3)CCC2=O)cc1,-5.2,-1.5,-0.4,0.8,i,4.5,-4%
O=C(CSc1ccc(-c2cccs2)nn1)NCCc1ccccc1,4.6,0.5,-0.6,0.72,i,2.4,-18%
CCc1nc2c(OCc3cccc(Cl)c3)cccn2c1N(C)C(=O)c1ccco1,-0.8,nt,-9.7,nt,i,nt,nt
O=C(/C=C/Sc1ccc(C(F)(F)F)cn1)c1ccccc1,0.6,0.0,nt,0.69,i,6.7,nt
CCN(CC(=O)Nc1cccc(OC)c1)CC(=O)Nc1cccc2ccccc12,3.5,nt,5.3,0.64,i,1.9,-11%
CCOC(=O)c1sc(NC(=O)CC2OC(=O)c3ccccc32)nc1C (stereo unspecified),5.1,nt,1.4,0.66,i,1.9,5%
CC(C)NC(=O)C1(O)c2ccccc2NC(=O)N1c1ccc(Cl)c(Cl)c1 (stereo unspecified),-1.1,-1.7,nt,0.65,nt,1.1,6%
CCCOC(=O)CN1C(=O)c2ccc(C(=O)OCCC)cc2C1=O,-0.4,-0.4,nt,0.7,nt,4.8,-5%
Cc1cc(-c2c(C)[nH]n(-c3ccccc3)c2=O)n[nH]1,1.8,-1.5,3.1,0.67,i,4.3,10%
Oc1ccc(C=Nc2ccccc2-c2nc3ccccc3[nH]2)cc1,-0.6,?,nt,0.65,nt,i,-3%
Cc1cc(C)cc(-n2nc(C)cc2N)c1,-3.0,1.0,8.6,0.65,i,2.3,27%
CC1(C(=O)NS(=O)(=O)c2ccc(Cl)cc2)CCN1C(=O)C1(c2ccccc2)CCCC1 (stereo unspecified),-0.1,nt,-2.0,nt,i,nt,nt
COc1ccccc1CNC(=O)c1cc(S(=O)(=O)N2CCN(c3ccccc3)CC2)ccc1Cl,-1.1,nt,-0.4,0.76,i,1.9,nt
c1cnc(SCCOc2ccc3c(c2)CCC3)nc1,-1.2,?,nt,0.72,nt,5.4,3%
Cc1[nH]c2ccccc2c1C(=O)C(=O)NCc1cccs1,0.7,-2.1,1.1,0.68,nt,1.9,0%
OC(c1ccc(Cl)cc1)c1ncc(-c2ccc(Cl)cc2)[nH]1 (stereo unspecified),-1.1,nt,11,nt,i,nt,nt
C/C(=N\Nc1ccccn1)c1ccc(N2CCOCC2)cc1,-1.4,26,15,nt,i,nt,nt
CCC(C)Sc1ccc([C@H]2N[C@@](Cc3ccccc3)(C(=O)OC)[C@H]3C(=O)N(C)C(=O)[C@@H]23)cc1 (stereo partly specified),4.7,-1.2,3.8,nt,i,0.9,nt
Cc1ccccc1OCC(=O)N1CCN(C(=O)COc2ccccc2C)CC1,-2.5,0.6,-2.1,0.67,i,3.3,nt
O=C(CN1C(=O)NC2(CCCC2)C1=O)OCCOc1cccc(Cl)c1,-0.8,3.4,-16,0.68,i,4.4,-15%
Cc1occc1C(=O)N/N=C/c1ccc(-c2cccc([N+](=O)[O-])c2)o1,3.8,-1.6,8.4,nt,i,nt,nt
COc1ccccc1NC(=O)N(Cc1ccco1)Cc1cc2cccc(C)c2[nH]c1=O,-1.5,-1.1,nt,0.74,nt,-3.9,1%
O=C(CCc1ccccc1)OCC(=O)c1ccc([N+](=O)[O-])cc1,0.5,7.7,-11,0.68,i,0.4,-4%
CCn1c(=S)sc2c(=O)n(CC(=O)Nc3ccc(OC)cc3)c(C)nc21,2.0,2.9,-3.1,0.7,i,5.0,nt
Cc1c(C(=O)N2CCN(c3ccccn3)CC2)oc2ccccc12,0.2,1.4,nt,0.63,nt,1.1,2%
COc1ccc(OC)c(NC(=O)C(=S)NC2CCCCC2)c1,-2.3,-4.4,11,0.66,i,1.3,-2%
CCN(CC)c1ccc(CNc2ccc3c(c2)ncn3C(C)(C)C)cc1,0.4,-3.1,41*,0.7,i,0.0,6%
CN(C)CCCn1c(N)c(S(=O)(=O)c2ccccc2)c2nc3ccccc3nc21,-21,0.5,-2.3,0.67,i,i,26%

# Laid out differently: entries from further up
# Below each compound: HNF4A DNA FP | RanGTP-Impb inh | MLL AF4-AF9 inh | Ecoli growth | FGF22 binding | UCH37 DUB inh | Vif A3G
- Cc1c(C(=O)N2CCN(c3ccccn3)CC2)oc2ccccc12
  0.2 | 1.4 | nt | 0.63 | nt | 1.1 | 2%
- COc1ccc(OC)c(NC(=O)C(=S)NC2CCCCC2)c1
  -2.3 | -4.4 | 11 | 0.66 | i | 1.3 | -2%
- CCN(CC)c1ccc(CNc2ccc3c(c2)ncn3C(C)(C)C)cc1
  0.4 | -3.1 | 41* | 0.7 | i | 0.0 | 6%
- CN(C)CCCn1c(N)c(S(=O)(=O)c2ccccc2)c2nc3ccccc3nc21
  -21 | 0.5 | -2.3 | 0.67 | i | i | 26%

# Carrying on:
SMILES,HNF4A DNA FP,RanGTP-Impb inh,MLL AF4-AF9 inh,Ecoli growth,FGF22 binding,UCH37 DUB inh,Vif A3G
COc1ccccc1CNC(=O)CCNS(=O)(=O)/C=C/c1ccc(C)cc1,8.0,nt,2.8,0.63,i,4.2,nt
CCCCCc1c(-c2ccc(OC)c(OC)c2)ncn1CCc1ccccc1OC,3.9,nt,5.5,nt,i,nt,nt
Cc1c(NC(=O)COc2cccc3c2OC(C)(C)C3)c(=O)n(-c2ccccc2)n1C,-0.1,2.5,-0.3,0.73,i,2.2,-2%
CN1C(=O)OC(C)(C)C1=O,-0.2,-2.5,nt,nt,nt,0.4,nt
C(=C\c1ccccc1)/CN1CCN(C(c2ccnc3ccccc23)c2nnnn2-c2ccc3c(c2)OCCO3)CC1 (stereo unspecified),2.6,nt,12,nt,i,nt,nt
COc1cc(C(=O)Nc2ccc(Nc3ccccc3)cc2)cc(OC)c1OC,-0.7,-0.3,3.2,0.66,i,2.9,nt
COC(=O)CCC(=O)NNC(=O)c1ccc(Cl)cc1Cl,5.7,1.0,nt,0.73,nt,2.5,7%
CCOC(=O)c1cc(C(=O)Nc2ccc(C)c(F)c2)nn1C,-1.6,0.7,nt,0.65,nt,2.4,14%
Cc1nc(SCC(=O)NC2CC2)c2c(C)c(C)sc2n1,1.0,-0.3,-10,nt,i,nt,nt
CCCN(C(=O)CSc1nnc2ccccn12)C1CCS(=O)(=O)C1 (stereo unspecified),4.0,nt,-0.2,0.66,i,-2.7,-5%
Cc1cccc(NC(=O)C2CC3CCC2C3)c1C (stereo unspecified),3.2,0.4,5.5,0.68,i,3.4,nt
C=CCNc1nc(-c2ccccc2)c(C(=O)OCC)cc1C#N,-3.1,8.0,nt,0.81,nt,-13,0%
O=C(O)c1ccccc1NC1CCCCC1NS(=O)(=O)c1ccccc1 (stereo unspecified),4.3,9.7,-2.2,0.71,i,-57,nt
CCC1Oc2ccc(C)cc2N(CC(=O)N2CCOCC2)C1=O (stereo unspecified),1.2,-0.3,-3.7,0.68,i,4.0,nt
CCOC(=O)c1cc(NC(=O)N2CCCCC2)c(C)nc1C,1.2,-1.6,nt,0.69,nt,1.3,0%
COC(=O)c1ccc(COC(=O)c2ccc(N(C)C)cc2)cc1,1.8,5.3,nt,0.7,nt,3.1,2%
CC12CCC(=O)C=C1CCC1C2C(=O)CC2(C)C1CCC2(O)C(=O)CO (stereo unspecified),0.6,-1.9,-7.8,0.69,i,5.0,0%
Cc1ccccc1-n1c(SCC(=O)N2CCCCC2)nc(O)cc1=O,-0.3,0.6,-0.7,0.7,i,-0.3,nt
COc1cccc(C2/C(=C(/O)c3ccc4c(c3)CC(C)O4)C(=O)C(=O)N2c2nnc(C)s2)c1 (stereo unspecified),2.6,-0.3,-4.9,0.69,i,9.6,nt
C[C@H](CO)N1C[C@H](C)[C@@H](CN(C)S(=O)(=O)c2ccccc2)Oc2ccc(NC(=O)CCN3CCOCC3)cc2C1=O,-4.3,nt,-2.7&0.1,nt,i,0.6,nt
COc1cccc(CN2CC(C(=O)NC3(c4ccccc4)CC3)CCC2=O)c1 (stereo unspecified),-1.4,-1.6,-8.9,0.69,i,-0.5,nt
Brc1ccc(-c2nc3ccccc3s2)s1,3.1,5.1,nt,0.77,nt,-6.7,-77%
Cc1c(C(=O)N2CCc3ccccc32)oc2ccccc12,-4.7,2.1,nt,0.67,nt,2.2,1%
Cc1nn2c(-c3ccc(F)cc3)ccnc2c1Cl,7.2,-3.0,2.6,0.69,i,-4.6,nt
COc1cc2cc(CN(CCc3cccc(C)c3)C(=S)NCCCN(C)C)c(=O)[nH]c2cc1OC,-2.6,-17,-34,0.74,i,-113,31%
Cc1cc(N/C=C\C(=O)c2ccc(Cl)c(Cl)c2)no1,0.2,1.6,nt,0.75,nt,-0.1,1%
CNC(=O)/C(C#N)=C/c1c(N2CCCCCC2)nc2ccccn2c1=O,7.0,1.8,-1.8,0.69,i,1.5,-1%
COc1ccc(/C=C/C(=O)OCC(=O)NC2CCCC2)cc1,3.3,nt,-0.2,0.65,i,-1.4,nt
CCOc1ccc(NC(=O)Nc2c(C)n(C)n(-c3ccccc3)c2=O)cc1,0.6,7.8,-15,0.66,i,1.5,3%
Cc1ccc(Nc2c(-c3ccccc3O)nc3ncccn23)cc1,4.3,3.4,3.9,0.71,i,1.8,nt
Cc1ccc(-c2n[nH]c(=O)c3ccccc23)cc1S(=O)(=O)NCCO,-4.6,?,nt,0.66,nt,4.3,22%
COc1ccc(OC)c(/C=C2\SC(=S)N(NS(=O)(=O)c3ccccc3)C2=O)c1,5.7,-5.7,-0.2,0.67,i,11,nt
CC12C(=O)N(c3ccc(OC(=O)c4ccco4)cc3)C(=O)C1C1c3ccccc3C2c2ccccc21 (stereo unspecified),1.1,3.9,nt,0.7,nt,6.2,nt
CSc1sc(C(=O)N2CCCCC2)c(-c2cccs2)c1C#N,2.4,1.2,-1.3,0.67,i,3.4,?
CC(Oc1ccc(Cl)cc1Cl)c1nc(-c2ccccn2)no1 (stereo unspecified),-3.3,7.2,nt,0.66,nt,-0.1,-5%
COc1cccc(C(=O)Nc2ccccc2N2CCCC2)c1,-4.0,2.0,nt,0.7,nt,3.8,3%
CC(C)C(=O)Nc1nnc(CCc2ccccc2)s1,1.8,1.5,-12,0.65,i,-3.3,0%
Cc1ccc(C)c(Nc2ccc3nonc3c2[N+](=O)[O-])c1,0.8,?,0.8,0.61,i,3.2,-1%
Cc1cc(C)n(-c2nc(C)nc(N)n2)n1,-1.8,?,nt,0.73,nt,0.3,2%
COc1cc(OC)cc(C(=O)Nn2cc(C(=O)N3CCN(C)CC3)c3ccccc3c2=O)c1,2.1,4.9,nt,0.73,nt,0.3,0%
CN(C(=O)c1cnc2n(c1=O)CCS2)C1CCCCC1,3.8,0.8,-0.6,0.64,i,1.2,2%
COc1ccc(CCNC(=O)c2ccc(=O)[nH]c2)cc1OC,0.8,3.5,-4.0,0.67,i,2.2,1%
C[N+](C)(C)CCOC(N)=O,1.5,nt,-2.6,0.66,i,4.4,nt

# This is a subset; count on the stated rates, not on these rows.
